D2 agonist: activates the human D2 dopamine receptor; P14416; AID 624465; DiscoveRx PathHunter D2 beta-arrestin, luminescence, 90 min; 100% = 57 uM dopamine signal; activation, % (concentration not given with the values); 0.084% of 360,000 active; in the data active = activation above about 40%; inconclusive = about 15% to 40%; inactive = below about 15%; also: compound concentration not given in the record; the text of the record calls up to 30% inactive
Target sequence (P14416 whole entry, looked up): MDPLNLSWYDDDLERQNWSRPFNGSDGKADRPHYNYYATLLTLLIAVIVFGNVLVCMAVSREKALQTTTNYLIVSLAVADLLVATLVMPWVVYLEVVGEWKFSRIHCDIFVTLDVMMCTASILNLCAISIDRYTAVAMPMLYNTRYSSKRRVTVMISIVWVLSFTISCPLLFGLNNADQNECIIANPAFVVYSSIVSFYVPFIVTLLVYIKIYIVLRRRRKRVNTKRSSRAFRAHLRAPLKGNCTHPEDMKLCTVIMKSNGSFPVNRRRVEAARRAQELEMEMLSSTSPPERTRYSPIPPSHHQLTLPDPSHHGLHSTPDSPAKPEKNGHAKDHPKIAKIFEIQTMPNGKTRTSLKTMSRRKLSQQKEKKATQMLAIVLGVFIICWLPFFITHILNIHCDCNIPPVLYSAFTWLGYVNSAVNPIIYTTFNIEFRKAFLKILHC
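DiscoveRx PathHunter D2 beta-arrestin cells (2,100/well) attached overnight, then compound-stimulated 90 min at 37 C in HBSS/10 mM HEPES/0.1% Tween-20 buffer; beta-galactosidase complementation read by luminescence after 1 h at ambient temperature. Dopamine 57 uM final (EC100) as control.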
TRPML1 blocker: blocks the human TRPML1 channel; Q9GZU1; TRPML1-inducible cells, Ca2+ dye fluorescence, FDSS; stronger effect = lower value; inhibition of EC80 agonist-evoked calcium signal; activity change, negative = inhibition, % (test concentration not listed); 0.02% of 390,000 active; AID 624415; in the data active means activity change below about -50%; inconclusive means about -30% to -50%; inactive means above about -30%;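 also: stimulus is agonist 54-4 at its EC80 concentration; % is scaled to controls: 0 for no effect and ±100 for the full control effect; compound concentration not given in the record; the text of the record puts the active cut at -80%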
Target sequence (Q9GZU1 whole entry, looked up): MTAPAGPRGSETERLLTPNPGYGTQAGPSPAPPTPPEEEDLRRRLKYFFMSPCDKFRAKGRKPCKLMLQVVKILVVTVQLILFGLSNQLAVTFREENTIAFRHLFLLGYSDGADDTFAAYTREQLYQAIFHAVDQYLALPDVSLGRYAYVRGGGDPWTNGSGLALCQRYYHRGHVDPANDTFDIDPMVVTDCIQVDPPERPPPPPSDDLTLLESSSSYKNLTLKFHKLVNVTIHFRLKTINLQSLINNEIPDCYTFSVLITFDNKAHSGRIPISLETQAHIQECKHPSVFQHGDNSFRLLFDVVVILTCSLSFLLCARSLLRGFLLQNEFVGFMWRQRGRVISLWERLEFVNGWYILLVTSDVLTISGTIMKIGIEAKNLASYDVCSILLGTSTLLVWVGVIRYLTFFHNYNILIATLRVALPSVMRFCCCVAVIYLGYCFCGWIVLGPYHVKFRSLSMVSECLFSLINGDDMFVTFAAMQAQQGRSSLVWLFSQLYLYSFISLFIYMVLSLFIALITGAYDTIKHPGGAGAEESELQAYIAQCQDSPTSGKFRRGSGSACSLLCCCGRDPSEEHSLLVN
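Tet-induced TRPML1-DL cells loaded with Ca8 no-wash calcium dye were read kinetically on FDSS. Compound addition was followed by EC80 agonist 54-4 (4 uM final); inhibition was read over 110 s.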
TRPML1 ag: human mucolipin-1 channel agonism; Q9GZU1; activation, % (no concentration beside the values); 0.12% of 410,000 active; TRPML1-expressing cells, Ca2+ dye fluorescence, FDSS; host cell line not named in the record; reference of the full effect not given here; in the data active = activation above about 50%; inconclusive = about 30% to 50%; inactive = below about 30%; also: 0% is about no effect; the text of the record puts the active cut at 80%
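Agonist activity was taken from a 110 s kinetic Ca2+ dye read on the FDSS after pinning compounds onto TRPML1-DL cells. The cells were seeded at 1,500/well with Tet inducer, incubated about 16 h, then dye-loaded at room temperature.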
Six1-Eya2 inh: inhibitors of human Six1/Eya2 interaction; AlphaScreen GST-Six1/His-Eya2 binding, biochemical; stronger effect = lower value; control for the full effect not named in the record; 0.56% of 360,000 active; activity change, % (concentration not given with the values); in the data active = activity change below about -65%; inconclusive = about -30% to -65%; inactive = above about -30%; also: % is scaled to controls: 0 for no effect and ±100 for the full control effect
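GST-Six1 + His-Eya2 (5X stock: 250/500 nM); Tris pH 8.0, 300 mM NaCl, 0.05% BSA, 0.02% Tween 20; GSH donor/Ni acceptor beads; 1 h 37 °C dark; AlphaScreen readout.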
D2 PAM: human D2 receptor positive allosteric modulation; DiscoveRx D2 beta-arrestin cells, luminescence, 90 min; 100% = 57 uM dopamine signal; potentiation, % (test concentration not listed); 0.23% of 360,000 active; active = potentiation of 50% or more; inconclusive = 30% to 50%; inactive = 30% or less;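 also: compound concentration not given in the record; tested on top of an EC20 dose of dopamine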
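PathHunter D2 cells, attached overnight at 37 deg C, received compound in DMSO plus dopamine at EC20 (50 nM final) for 90 min at 37 deg C. Beta-arrestin recruitment was read as luminescence after 1 h with detection reagent at ambient temperature.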
PINK1 modulator: changes PINK1 expression; PINK1 immunofluorescence, high-content cytometry, 24 h; Potency, µM (top dose mostly 76.6 µM), without a hit: at the top dose activation (PINK1 increase), usual class: activators; 0.2% of 410,000 active; AID 624263; active = well fitted activation curve with a large enough effect; inconclusive = small, poorly fitted or top-dose-only effect; inactive = flat fitted curve, though single readings scatter; cell line not stated here;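 also: potency is read from the fitted curve at half-maximal effect; % of control where 0% means no effect; nearly all actives have a fitted effect of over 65% in size; a mitochondrial uncoupler was the plate control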
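Stable cell line, 250 cells/well, 12 h attachment; compounds pinned at 5 concentrations, 24 h; CCCP control. Fixed with nuclear dye, primary antibodies 12 h at 10 degrees C, secondary plus cell stain; laser-scanning cytometer read.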
An asterisk follows results filed as active; ? = inconclusive; / = not tested or not shown; [ ] = remark or other dose.

molecule	TRPML1 ag	D2 PAM	D2 agonist	TRPML1 blocker	PINK1 modulator	Six1-Eya2 inh
CCc1nc2c(OCC(=O)c3ccc(F)cc3)cccn2c1N(C)C(=O)c1ccc(OC)cc1	-0.7	-2.7	-2.5	/	6.7%	2.4
CCOC(=O)c1ccc(NC(=S)N(CCCN2CCN(CC)CC2)Cc2cccs2)cc1	1.3	-7.0	-12.0	-1.3	2.0%	-10.4
CCOC(=O)c1c(NC(=O)COc2cccc3c2CCN(CC)C3=O)sc2c1CCC2	0.5	0.7	-2.0	38.1	10.4%	2.8
COc1cc(S(=O)(=O)N2CCC(C(N)=O)CC2)c(C)cc1C	0.5	-2.1	-0.3	-3.8	-5.9%[38.3 µM]	-1.0
CC(C)c1ccc(N2C(=O)CC(Sc3ncccn3)C2=O)cc1 (stereo not given)	/	1.6	-6.1	/	-0.5%	14.8
CC(=O)Nc1ccc(S(=O)(=O)N(C#N)c2nc(N(C)C)nc(N(C)C)n2)cc1	-0.3	-1.3	4.3	-3.0	1.4%	-7.5
C[C@@H]1CN([C@@H](C)CO)C(=O)CCCn2cc(nn2)CO[C@H]1CN(C)S(=O)(=O)c1ccc(-c2ccccc2)cc1	-0.1	2.9	-7.7	-10.0	2.0%	-6.8
O=[N+]([O-])c1cc([N+](=O)[O-])c2c(=Nc3ccccc3)n(-c3ccccc3)n(O)c2c1	-0.2	17.7	?	14.4	-0.9%	?
Cc1ccc(S(=O)(=O)NCCC(=O)Nc2ccncc2)cc1C	1.2	-23.5	-5.8	-10.9	0.1%	8.6
O=C(/C=C/c1cccs1)N1CCCC1	0.7	3.2	-1.7	6.0	2.1%	8.2
CCOC(=O)CC(NC(=O)C(CC)c1ccccc1)c1ccccc1Cl (stereo not given)	0.4	-8.0	-6.2	11.8	1.1%	12.5
COc1cc(S(=O)(=O)N2CCCCC2)ccc1NC=O	0.1	13.5	-3.8	-12.6	1.3%	13.7
COC(=O)Cc1c(C(=O)OC)nnn1-c1cccc(C(F)(F)F)c1	-0.7	-8.3	-1.0	26.5	9.0%	9.4
c1cncc(C(c2nnnn2C2CCCCC2)N2CCCCC2)c1 (stereo not given)	-0.2	-20.4	-1.4	-4.5	-2.1%	0.7
Cc1cc(C)c(S(=O)(=O)c2ccccc2)c(OC(=O)c2c(Cl)cccc2Cl)n1	1.7	-2.6	-3.7	58.0	-1.5%	-5.5
COc1cccc(C2c3c(oc4ccc(Cl)cc4c3=O)C(=O)N2c2cc(C)on2)c1OC (stereo not given)	2.3	-17.1	-2.5	44.6	12.6µM*	0.0
Cc1nc2ncnn2c(N2CCC(C(=O)NCC3CCCO3)CC2)c1Cc1ccccc1 (stereo not given)	0.1	0.5	-1.2	-0.9	-2.3%[38.3 µM]	4.3
COc1ccc(-n2nc3c(N4CCC(C(=O)NCc5ccccc5)CC4)nnc(C)c3c2C)cc1	-0.4	-13.2	-7.1	-3.6	2.3%	-3.1
CO/N=C(/CS(=O)c1ccc(Br)cc1)c1ccc(OC)cc1 (stereo not given)	-0.3	2.0	0.0	-3.0	1.3%	17.0
COc1ccc(C2c3c(-c4c(C)cc(C)cc4O)n[nH]c3C(=O)N2Cc2ccco2)cc1 (stereo not given)	2.5	/	/	53.1	-0.1%	/
COc1cccc(C(=O)NCC(=O)OCc2ccc(F)cc2Cl)c1	1.5	7.4	-3.3	-9.2	1.0%	-0.9
CCCNC(=O)N(C)c1nncnc1C(=O)NC	-0.4	-10.1	-1.8	-6.0	-11.9%[38.3 µM]	4.5
Cc1ccc(C(=O)O)cc1NC(=O)CSc1nnc(-c2ccccc2F)n1C1CCCCC1	-0.9	-2.8	-2.1	30.4	1.8%	-1.7
O=C(CCc1nnc(Cc2cccc(C(F)(F)F)c2)o1)NCCc1ccccc1F	-0.6	-13.5	-4.4	-11.8	1.0%	1.5
Cc1c(C(=O)Nc2ccc(C(C)C)cc2)sc2nc[nH]c(=O)c12	0.1	/	/	0.6	1.3%	/
CCC(C)[C@H](NC(=O)C1CCC(CNC(=O)[C@@H]2CCCN2C(=O)OC(C)(C)C)CC1)C(=O)O (stereo not given in full)	0.2	3.6	0.3	-7.9	1.8%	8.2
CCOc1ccc(S(=O)(=O)NCc2ccccn2)cc1NC(=O)c1ccccc1F	0.7	-6.6	-0.3	-14.3	5.3%	-19.7
O=C(CSc1c2c(nc3cc(Cl)ccc13)CCCC2)NCCCN1CCOCC1	1.1	-8.4	-5.9	-5.7	1.5%	3.2
CCOc1ccc(S(=O)(=O)N2CCN(c3ccc(Cl)c(Cl)c3)CC2)c2ccccc12	0.4	/	/	8.6	-0.7%	/
CCCNC(=O)N(C)C[C@@H]1Oc2cc(C#CC(C)(C)O)ccc2S(=O)(=O)N([C@H](C)CO)C[C@H]1C	1.6	2.9	1.1	-3.1	-1.6%	12.8
O=C(Nc1nccs1)C1CCN(S(=O)(=O)c2ccccc2)CC1	0.3	-0.5	-2.8	-2.5	-1.5%	-5.0
O=C1c2ccc([N+](=O)[O-])cc2C(=O)N1CNc1ccccn1	0.1	-1.9	-1.2	5.3	-0.9%	0.5
O=S(=O)(NCCOCCNS(=O)(=O)c1ccccc1)c1ccccc1	-0.1	5.6	-9.2	-6.9	-1.0%	9.9
CC(C)Oc1ccc(CNC(=O)c2ccc3c(c2)N(Cc2ccc(F)cc2)CCS3)cc1	1.1	/	/	6.4	1.6%	/
Nc1ccc(-c2nnn(Cc3ccccc3)n2)cc1	0.2	-2.2	-2.7	-14.0	1.7%	-2.6
Cc1ccc(C(=O)OC2CCN(c3ccc([N+](=O)[O-])cc3)CC2)cc1	-0.9	-16.3	-4.2	-9.7	0.2%	-3.7
FC(F)(F)c1ccnc(Sc2n[nH]c(C(F)(F)F)n2)c1	2.4	-2.4	-6.0	-0.7	-0.1%	7.2
Cc1ccc(-c2csc3nc(SCC(=O)N(C)C)n(Cc4ccccc4)c(=O)c23)cc1	3.4	5.6	1.0	63.1	8.9%	-1.2
CCN(CC)Cc1csc2ccc(Br)cc12	1.5	-26.7	-4.9	10.3	12.6%	0.0
CC(=O)Nc1ccc(NC(=O)Cn2c(=O)n(-c3ccccc3)c(=O)c3oc4ccccc4c32)cc1	0.3	-4.7	-4.3	-11.4	1.0%	-6.6
O=C(NCC(c1ccco1)N1CCOCC1)C1CCCCC1 (stereo not given)	0.0	-0.1	-0.6	6.2	1.2%	6.7
COc1cccc(C(=O)Nc2ccc(-n3nncc3C(C)(C)C)cc2)c1	-0.5	-11.1	-3.0	2.9	1.5%	3.2
CCOC(=O)N1CCN(C(=O)C(=O)N/N=C/c2ccc(OC)cc2OC)CC1	-0.8	0.9	-3.9	-7.3	3.0%	1.0
CC1=CC(C)(C)Nc2ccc(OC(=O)CN3C(=O)CCC3=O)cc21	0.1	17.1	5.5	-1.1	/	-0.2
Cc1ccc(-c2nc(NCc3ccco3)n(S(C)(=O)=O)n2)cc1	-1.3	6.7	-0.8	15.6	0.0%	-6.5
COc1ccc(OC)c(NC(=O)C2CCCN(S(=O)(=O)c3c(C)noc3C)C2)c1 (stereo not given)	-0.5	-4.3	-0.5	-7.7	-1.4%	-2.1
CN(C)CCCOc1ccc2c(c1)Sc1ccccc1CC2=O	5.9	-42.2	0.6	11.5	1.4%	-10.5
Cc1c(C(=O)N2CCCC2)oc2c1-c1nn(CC(=O)NCc3ccccc3F)cc1CC2	2.2	/	/	28.0	-0.6%	/
O=C(NCc1cccnc1)c1cccc2c1C(=O)N(Cc1cccnc1)C2	-0.8	-8.5	-4.2	0.6	0.4%	-7.8
Cc1[nH]c(=O)[nH]c(=O)c1S(=O)(=O)Nc1ccc(Br)cc1F	0.7	-1.5	2.3	15.6	-2.4%	7.8
Cc1ccc(NC(=O)C(C)OC(=O)/C=C/c2ccccc2)cc1 (stereo not given)	-0.6	-11.3	-1.4	4.3	2.0%	3.1
Cc1ccc(S(=O)(=O)/N=c2\ccc(Cl)cn2C(F)F)cc1	0.2	-10.4	-3.8	11.5	1.8%	-0.4
Cc1cc(C(=O)NNC(=O)c2ccccc2O)c(C)o1	-0.6	-2.1	8.1	5.2	0.1%	-8.8
Cc1ccccc1NC(=O)c1c2c(nc3ccccc13)C(=O)N(C1CCCCC1)C2	1.1	/	/	4.2	0.6%	/
CCCOC1CCCN(C(=O)c2cc(COc3ccc(F)c(F)c3)on2)C1 (stereo not given)	3.1	9.0	2.2	18.0	1.2%	14.1
COC(=O)c1c(C)[nH]c(C(=O)OC(C)C(=O)N(C)C2CCCCC2)c1C (stereo not given)	2.0	-13.6	-3.0	16.1	-1.1%	-0.5

New compounds follow.
molecule	TRPML1 ag	D2 PAM	D2 agonist	TRPML1 blocker	PINK1 modulator	Six1-Eya2 inh
Cc1cc(N2C(=O)C3C4C=CC(C4)C3C2=O)no1 (stereo not given)	-0.6	10.3	-3.5	-1.7	-1.2%	3.7
Cc1ccc(C)c(COC(=O)c2cc(S(=O)(=O)N3CCCCC3)ccc2N2CCOCC2)c1	1.0	7.6	1.3	30.9	0.0%	-9.9
CCOC(=O)C1CCN(C(=O)N(C)C)CC1	-0.3	-12.3	-1.7	0.6	-4.0%[38.3 µM]	-2.5
COc1ccc(-c2noc(-c3ccccc3OCC(=O)Nc3ccc(C(C)=O)cc3)n2)cc1	-0.4	/	/	4.0	3.2%	/
O=C(CCCl)N1CCCC2(CCCCC2)C1	0.0	1.4	-0.4	4.5	-0.3%	6.8
O=C(N/N=C/c1coc2ccc(Cl)cc2c1=O)c1ccc(O)cc1	-0.2	-14.6	-1.7	17.1	0.0%	-0.7
COc1ccc(NC(=O)c2c(-c3ccccc3)noc2C)c(OC)c1	0.7	7.7	-2.3	13.9	/	0.0
CC1Cc2ccccc2N1S(=O)(=O)c1cccc(C(=O)NCc2ccncc2)c1 (stereo not given)	0.0	-17.2	4.4	21.9	0.0%	15.8
Cn1c(N)c(C(=O)COC(=O)c2cccc(S(=O)(=O)N3CCCCC3)c2)c(=O)n(C)c1=O	1.3	-7.1	1.1	-9.2	3.7%	-2.1
CN=c1sc(C(=O)Nc2cccc(Cl)c2)cc(=O)n1C	0.2	-6.9	-3.8	-7.8	2.6%	22.5
CCC12CN3CC(CC)(CN(C1)C3c1cccc(OC)c1O)C2=O (stereo not given)	-0.4	/	/	-16.1	-0.6%	/
O=C(Nc1ccc(F)cc1F)c1c2c(nc3ccccc13)C(=O)N(C1CCCCC1)C2	-0.3	/	/	-19.1	3.1%	/
Fc1ccccc1/C=N/Nc1nc(N2CCCCC2)nc(N2CCCCC2)n1	0.0	-1.5	-5.4	17.4	7.0%	-4.6
CCN(CC)C(=O)c1ccc2c(c1)N(Cc1ccccc1F)C(=O)c1ccccc1S2=O (stereo not given)	-1.6	/	/	-4.4	2.6%	/
Cc1ccc(C(=O)Nc2cccc(C(F)(F)F)c2)cc1Nc1ncnc2nc[nH]c12	0.9	-14.1	0.5	?	-1.5%	3.1
